# Screening results (PubChem BioAssay)
# INS promoter inh – TRM-6 insulin promoter activity inhibition | TRM-6 cells (human fetal islet line), insulin promoter-eGFP reporter, imaging; reporter expression induced with tamoxifen | inhibition, % at 2 µM | 130,000 tested, 0.9% active | AID 1273;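 active = inhibition above the mean plus 3 SD, with well images judged a real hit on visual review, cut at about 60% in these data, passing the limit was not always enough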
# RGS16-Gao HTS – regulators of human RGS16-Galphao interaction | binding response (% of control), % at 10 µM | 220,000 tested, 0.38% active | bead-based flow cytometry RGS16-Galphao binding, fluorescence; actives lie on both sides | O15492+P09471;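 active = below 25% or above 175%, edge rows of some plates excepted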;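 note: Galphao activated by GDP with aluminum fluoride before binding; 100% = wells without compound and 0% = beads without RGS; some results beyond the cut were filed as inactive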
# Target sequence (O15492 whole entry, looked up): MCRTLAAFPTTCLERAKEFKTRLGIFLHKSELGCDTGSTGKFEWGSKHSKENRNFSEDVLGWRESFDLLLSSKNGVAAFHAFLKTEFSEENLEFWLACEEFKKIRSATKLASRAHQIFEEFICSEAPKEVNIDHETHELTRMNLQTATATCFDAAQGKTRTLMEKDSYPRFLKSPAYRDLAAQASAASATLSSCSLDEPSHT
# Target sequence (P09471 whole entry, looked up): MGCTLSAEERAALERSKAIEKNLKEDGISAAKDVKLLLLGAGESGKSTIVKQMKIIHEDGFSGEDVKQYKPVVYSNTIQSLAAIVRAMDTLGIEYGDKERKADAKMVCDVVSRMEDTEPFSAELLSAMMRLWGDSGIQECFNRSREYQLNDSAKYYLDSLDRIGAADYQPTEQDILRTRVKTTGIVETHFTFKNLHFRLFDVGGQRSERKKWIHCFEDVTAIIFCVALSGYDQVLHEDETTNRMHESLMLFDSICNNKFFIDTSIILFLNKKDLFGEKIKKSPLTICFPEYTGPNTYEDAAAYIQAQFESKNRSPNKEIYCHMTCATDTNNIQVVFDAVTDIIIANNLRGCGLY
# HSV augment – HSV replication enhancement. HSV replication augmentation in cells, fold increase. maximum fold increase. 220,000 tested, 0.005% active;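 active = peak rise of 1.5-fold or more in the series; tested in PC3 cells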;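 note: first round at 10 µM; read as green reporter fluorescence; hits show the peak of a series up to 25 µM; 1 = signal of infected wells without compound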
# PKD1 inh – blocks activity of human protein kinase D1; Q15139; PKD1 kinase fluorescence polarization assay; inhibition, %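 (about 10 µM by stock and volumes)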; 200,000 tested, 0.056% active; AID 797;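 active = inhibition of 50% or more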;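 note: controls were vehicle for no effect and a reference inhibitor for full effect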
# GALR2 ag – GALR2 (human) receptor agonism; O43603; 140,000 tested, 0.48% active; activation, %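 (tested at 5 µM)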; GALR2-expressing cells, agonist activation read-out; AID 803;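 active = above mean plus 3 SD of all compounds, about 5% in these data, not always enough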;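 note: 0% = vehicle buffer wells and 100% = reference agonist at full effect; tested in CHO reporter cells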
# Target sequence (O43603 whole entry, looked up): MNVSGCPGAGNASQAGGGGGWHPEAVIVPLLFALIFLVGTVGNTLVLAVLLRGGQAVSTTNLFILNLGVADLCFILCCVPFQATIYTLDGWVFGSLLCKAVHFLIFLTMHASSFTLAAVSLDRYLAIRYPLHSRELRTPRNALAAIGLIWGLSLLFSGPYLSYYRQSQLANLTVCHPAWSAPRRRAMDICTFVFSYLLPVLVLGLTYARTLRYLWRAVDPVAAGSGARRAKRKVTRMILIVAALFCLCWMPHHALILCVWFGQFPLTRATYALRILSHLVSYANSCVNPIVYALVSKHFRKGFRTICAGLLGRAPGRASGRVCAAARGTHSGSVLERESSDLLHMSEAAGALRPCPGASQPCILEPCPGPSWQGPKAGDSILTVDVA
# INS promoter inh cell count – recorded beside INS promoter inh, whose call it bears; normalized cell count, %; measured here: cell count, toxicity; reference of the scale not given here;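 cells exposed to compound for 48 h; stained nuclei by imaging scaled within each plate; lower means fewer cells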
# HSV augment primary fold – further read-out of HSV augment, marked with its call; fold increase; compound at 10 µM; measured here: primary screen fold increase 10 uM; tested in PC3 cells;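 GFP signal in the first replicate; 1 = infected wells without compound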
# The depositor's hits bear a star; i = inactive; nt = not tested or not shown.
Structure	INS promoter inh	INS promoter inh cell count	RGS16-Gao HTS	HSV augment	HSV augment primary fold	PKD1 inh	GALR2 ag
CCc1ccc(NC(=O)C2CCCN2S(=O)(=O)c2ccc3c(c2)n(C)c(=O)c(=O)n3C)cc1 (centres undefined)	nt	nt	100	i	0.93	nt	nt
N=c1c2c(-c3ccccc3)c(-c3ccccc3)n(Cc3ccco3)c2ncn1CCCN1CCOCC1	nt	nt	102	i	0.65	-6	nt
CC(/C=N/NC(=O)c1cc(-c2ccccc2)nc2ccccc12)=C\c1ccco1	24	26	105	i	0.95	-12	-0.6
O=C(CCSCCC(=O)NCc1ccco1)NCc1ccco1	nt	nt	94	i	1	5	-2.8
CCC(OC(=O)c1cccs1)C(=O)NCc1ccc(C)cc1 (centres undefined)	nt	nt	87	i	1	-5	nt
COc1ccccc1NC(=O)N1CCN(c2ccccc2F)CC1	14	115	96	i	0.94	-8	-1.0
COc1ccc(N2CC(O)=C(c3nc4ccccc4s3)C2=N)cc1	nt	nt	105	i	0.82	-4	0.6
CC(C)C(=O)NC(c1ccco1)c1c(O)ccc2ccccc12 (centres undefined)	17	99	97	i	0.75	-5	-2.6
O=C(NC(=O)c1c(F)cccc1F)Nc1ccccc1SC(F)F	nt	nt	102	i	1.2	nt	nt
CCc1nnc(NC(=O)C2CCN(c3nc(C)cc(C)n3)CC2)s1	14	107	101	i	0.92	5	2.5
O=C(NC1CC1)c1c[nH]c2ccc(S(=O)(=O)Nc3cccc(C(F)(F)F)c3)cc2c1=O	nt	nt	91	i	1	1	-0.1
O=C(NCCC1=CCCCC1)C1CCN(S(=O)(=O)c2cnc[nH]2)CC1	69	114	100	i	1	-4	-1.1
CNC(=O)COc1ncnc2sccc12	nt	nt	101	i	0.97	-5	-2.5
Cc1ccccc1SCC(=O)NC1CCOC1=O (centres undefined)	nt	nt	100	i	0.99	10	1.1
Cc1cccc(-n2c(C)cc(/C=N/O)c2C)c1	-90	143	104	i	0.91	-7	-0.9
O=C(CN1CCN(Cc2ccccc2)CC1)Nc1cccc(S(=O)(=O)N2CCCCCC2)c1	nt	nt	100	i	0.9	-3	nt
CCCC(C)C(=O)Nc1ccc(C(N)=O)cc1 (centres undefined)	-25	125	100	i	0.96	-7	-1.1
C=CCn1cc(C(=O)OC)c(=O)c2cc(S(=O)(=O)N3CCCCCC3)ccc21	-78	57	102	i	0.76	-1	nt
O=C1CC(=O)C(n2cncn2)C(c2ccc(Cl)cc2Cl)C1 (centres undefined)	nt	nt	101	i	0.89	-10	0.1
C=CCNC(=S)Nc1sc2c(c1C(=O)OCC)CCN(C(=O)OCC)C2	-8	143	80	i	1	-4	0.3

# Limited to GALR2 ag and INS promoter inh, for some of the entries so far:
mol	GALR2 ag	INS promoter inh
CCCC(C)C(=O)Nc1ccc(C(N)=O)cc1 (centres undefined)	-1.1	-25
Cc1ccccc1SCC(=O)NC1CCOC1=O (centres undefined)	1.1	nt
C=CCNC(=S)Nc1sc2c(c1C(=O)OCC)CCN(C(=O)OCC)C2	0.3	-8

# Later entries
Structure	INS promoter inh	INS promoter inh cell count	RGS16-Gao HTS	HSV augment	HSV augment primary fold	PKD1 inh	GALR2 ag
COc1ccc(N2CC(O)=C(c3nc(-c4ccc(Cl)cc4)cs3)C2=N)cc1	nt	nt	98	i	0.97	-3	nt
O=[N+]([O-])c1ccc2nc(SCc3cn4ccccc4n3)[nH]c2c1	nt	nt	93	i	0.9	3	-0.6
C[C@H](NC(=O)OC(C)(C)C)c1nnc(SCC(=O)Nc2ccc(Br)cc2)o1	23	92	94	i	0.93	1	-4.4
CCO[C@H]1OC(C(=O)NC2CC2)=C[C@@H](C)[C@@H]1CCCO	nt	nt	94	i	0.92	1	nt
Cc1cccc(-c2nc3c(c(SCC(=O)N4CCOCC4)n2)CCCC3)c1	31	106	62	i	0.91	0	-1.6
O=C(O)c1cnc(-c2ccccc2)nc1Oc1ccc(Cl)cc1	nt	nt	100	i	0.93	1	nt
COc1ccc2c(c1)NC1(O)c3ccccc3C(=O)C21O (centres undefined)	36	119	63	i	0.64	7	-1.2
COc1ccc(-c2nn(-c3ccccc3)cc2/C=C/C(=O)N2CCOCC2)cc1OC	nt	nt	98	i	0.9	-6	nt
COc1ccc(Br)cc1-c1noc(-c2ccncc2)n1	-51	91	80	i	0.91	-1	-1.7
Cc1cccc(-c2nnc(NC(=O)c3cccs3)s2)c1	-2	101	101	i	0.87	-1	-2.5
COC(=O)C1CCN(C(=O)COC(=O)c2ccc(OC)c(S(=O)(=O)N3CCCc4ccccc43)c2)CC1	nt	nt	110	i	1.1	-13	nt
O=C(O)CN1C(=O)/C(=C/c2ccc(SCc3ccccc3)o2)SC1=S	nt	nt	96	i	1.1	-9	nt
COc1ccc(NC(=S)N(CCCN2CCOCC2)C(C)c2cc3cccc(OC)c3o2)cc1 (centres undefined)	-50	70	104	i	0.92	-1	nt
CSc1nc2ccc(NC(=O)NC(=O)c3c(F)cccc3F)cc2s1	nt	nt	104	i	1.1	nt	nt
CCc1nc(SCC(=O)Nc2ccc(N(C)C)cc2)c2ccccc2n1	nt	nt	98	i	0.85	nt	nt
CCOC(=O)c1c(NC(=O)CSc2nc3c(c(=O)n(C)c(=O)n3C)n2C(C)C)sc(C)c1C	-32	116	104	i	0.95	-8	-0.5
CCC1CCc2c(sc(NC(=O)c3ccco3)c2C(N)=O)C1 (centres undefined)	-343	43	27	i	0.97	7	-1.0
COc1ccc(CCCC(=O)N/N=C/c2cccc(OC)c2O)cc1C	52	119	106	i	0.66	-1	-0.6
Nc1nnc(SCc2c(F)cccc2Cl)s1	nt	nt	98	i	0.93	nt	nt
Cc1c(NS(=O)(=O)c2ccc(N(C)C3CCCCC3)c([N+](=O)[O-])c2)c(=O)n(-c2ccccc2)n1C	-37	70	35	i	0.87	-10	-0.4
COc1ccc(CNC(=O)CSc2nnc(Cn3nnc4ccccc43)n2C)cc1	39	42	105	i	0.71	-3	-1.7
O=C(Nc1ccc2c(c1)OCCO2)c1cc2ccccc2o1	nt	nt	101	i	0.92	-1	nt
O=C1NN(c2ccccc2)C(=O)/C1=C/c1cccs1	nt	nt	107	i	0.82	-4	-1.1
Cc1ccccc1-n1c(Cn2c(=O)sc3ccccc32)nnc1SCC(=O)NCC1CCCO1 (centres undefined)	nt	nt	90	i	0.79	-9	-0.4
CC(C)N(Cc1nc(-c2ccccc2)no1)C(=O)Cc1ccccc1	nt	nt	118	i	0.99	-3	-1.5
CN(c1ccc(OCC(=O)OCC(=O)Nc2ccc(F)cc2)cc1)S(=O)(=O)c1ccc(Cl)cc1	nt	nt	100	i	1.1	1	-0.3
CCCCSCCCNC(=O)CS(=O)Cc1nc(-c2cccc(C)c2)oc1C (centres undefined)	-12	215	99	i	0.84	10	-1.1
CC(C)NC(=O)C1CCCN(S(=O)(=O)c2ccc(-n3cnnn3)cc2)C1 (centres undefined)	-2	123	110	i	1	-1	-0.9
COc1ccc(NC(=O)c2ccc(C)cc2)c(OC)c1	-12	99	107	i	0.95	-14	-2.3
Cc1c(C(=S)Nc2ccccc2)cnn1-c1ccccc1	nt	nt	101	nt	nt	-5	-1.9
COc1ccc(C2(C(=O)NCc3ccccc3Cl)CCOCC2)cc1OC	nt	nt	102	i	0.86	3	nt
CSC1=C(C#N)C(c2ccccc2Cl)C(C(C)=O)=C(C)N1 (centres undefined)	-59	98	91	i	0.85	7	0.0
CC(=O)Nc1ccc(C2NC(=S)N(c3ccccc3C(F)(F)F)C(C)=C2C(=O)N2CCOCC2)cc1 (centres undefined)	nt	nt	98	i	0.92	2	nt
CCOC(=O)c1nnn2c1nc(N(CC)CC)c1ccccc12	nt	nt	100	i	0.96	nt	nt
O=C(N/N=C/C(Br)=C/c1ccccc1)C(O)c1ccccc1 (centres undefined)	nt	nt	103	i	0.84	nt	nt
Cc1cc(/C=N/NC(=O)c2nn(C)cc2Cl)c(C)n1-c1cccc(Br)c1	6	124	84	i	0.92	0	-0.7
Nc1nonc1-n1nnc(C(=O)c2ccccc2)c1-c1ccccc1	-19	111	107	i	0.9	-1	-1.6
CC1(C)NC(C)(C)c2nonc2/C1=N\O	-38	94	105	i	1.1	-3	-0.9
CCN1C/C(=C\c2cccc(C)c2)c2nc3ccccc3c(C(=O)O)c2C1	0	101	104	i	1.1	-8	-1.5
O=C(c1ccccc1)N1N=C(c2ccccc2)CC1c1ccccc1O (centres undefined)	7	129	97	i	0.9	-3	nt
O=C(CC1Oc2ccccc2NC1=O)NC1CC1 (centres undefined)	nt	nt	103	nt	nt	7	-4.2
CC(Oc1ccccc1)C(=O)Nc1cccc(F)c1 (centres undefined)	-34	54	110	i	0.86	4	-2.3
CCOC(=O)c1cn2nc(Oc3ccc(C(=O)OC)cc3)ccc2n1	nt	nt	103	i	1	nt	nt
CC(=O)NC(=S)Nc1cccc([N+](=O)[O-])c1	nt	nt	100	i	0.93	-3	nt
Cc1ccc(C(=O)NC2CCN(CC(=O)Nc3cccc([N+](=O)[O-])c3)CC2)cc1	-18	133	100	i	0.98	1	nt
COc1ccc(N(CC(=O)N/N=C(\C)CCc2ccccc2)S(=O)(=O)c2ccc(C)cc2)cc1	nt	nt	106	i	0.97	nt	nt
CC1CCCN(CCC(=O)Nc2ccc3c(c2)CCC3)C1 (centres undefined)	-100	84	95	i	0.96	6	-1.2
CC1CCN(C(=O)C2CCN(S(=O)(=O)c3cnc[nH]3)CC2)CC1	i	48	97	i	1.1	-2	-3.4
CCc1ccc(C2c3[nH]c4ccccc4c3CCN2C(=O)c2ccc(=O)n(C)n2)cc1 (centres undefined)	nt	nt	108	i	0.95	-2	nt
O=C(Nc1ccc(N2CCCCC2)cc1)c1ccc2c(c1)OCCO2	11	158	105	i	0.72	-7	-2.8
Cc1sc2nc(SCC(=O)NCCO)n(C)c(=O)c2c1C	3	134	104	i	0.69	3	-1.3
NC(CCCCCP(=O)(c1ccccc1)c1ccccc1)C(=O)O (centres undefined)	nt	nt	92	i	1.3	nt	nt
O=C(Nc1ccccc1C(=O)O)c1cc(S(=O)(=O)N2CCOCC2)cs1	-36	121	102	i	0.95	2	nt
Cc1c(C(=O)Nc2ccccc2)cn2c(nc3ccccc32)c1C#N	21	83	92	i	0.98	-3	-0.1
Cc1cc(C)nc(Nc2ccc(N3CCOCC3)cc2)n1	nt	nt	97	i	0.87	-22	-1.8
COC(=O)C1(C)NC(c2ccco2)C2C(=O)N(c3ccc(C)cc3)C(=O)C21 (centres undefined)	8	113	30	i	0.86	-3	-0.9
C/C(=N\N=C(/N)SC1CC(=O)N(c2ccccc2)C1=O)c1cccs1 (centres undefined)	nt	nt	102	i	0.89	-10	-0.7
COC(=O)c1ccc(OC(=O)C2CC(=O)N(c3cccc(C)c3)C2)cc1 (centres undefined)	20	151	91	i	1	8	-0.2
CCCCc1ccc(S(=O)(=O)NNC(=S)NCc2ccco2)cc1	-42	100	100	i	1	-8	-1.7
O=C(Nc1ccc(F)cc1)C(c1ccccc1)N1CCN(S(=O)(=O)c2ccccc2)CC1 (centres undefined)	-144	98	96	i	1.1	0	0.0

# (continued)
Structure	INS promoter inh	INS promoter inh cell count	RGS16-Gao HTS	HSV augment	HSV augment primary fold	PKD1 inh	GALR2 ag
COC(=O)C(NC=O)C(O)(Cc1ccccc1)C(F)(F)F (centres undefined)	nt	nt	99	i	1	-5	-1.9
O=C(COc1ccccc1Cl)N(Cc1ccco1)C1CCS(=O)(=O)C1 (centres undefined)	nt	nt	109	i	0.83	-1	-0.6
COc1nc(-c2cccc([N+](=O)[O-])c2)nc2ccccc12	nt	nt	84	i	1	nt	nt
Cc1ccc(S(=O)(=O)N2CCN(C(=O)N(C)C)CC2)cc1C	23	96	103	i	1	2	-3.0
O=C(Nc1ccccc1)C1=C(O)CC(c2ccco2)CC1=Nc1ccccc1 (centres undefined)	-64	141	98	i	1.6	1	-2.1
CSc1ncccc1C(=O)OCC(=O)NC(C)(C)C	-89	86	108	i	0.89	-4	nt
C[C@]12C=CC(=O)C=C1CC[C@H]1[C@@H]3C[C@@H](O)[C@](O)(C(=O)CO)[C@@]3(C)C[C@H](O)[C@@]12F	9	100	106	i	0.89	-5	-0.1
COC(=O)Cn1c(=O)c(C(=O)CCl)c(N)n(Cc2ccccc2)c1=O	nt	nt	80	i	0.87	nt	nt
